Rango dissoc inh: inhibitors of RanGTP-induced Rango-importin beta complex dissociation; Potency, µM (series often up to 46.1 µM), for the others: at the top dose activity change, negative = inhibition; O95149+P62826; 340,000 compounds, 0.071% hits; Biochemical FRET Rango-importin beta, RanGTP-induced dissociation; AID 540253; active means falling FRET ratio curve, often poorly fitted, with flat reads before Ran was added; inconclusive means other falling curves, or compound fluorescence or quenching; inactive means flat or rising ratio curve;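 note: potency is the fitted concentration of half-maximal effect; % of control where 0% means no effect; nearly all actives have a fitted effect of over 45% in size; -100% = wells without RanGTP and RCC1; the record marks most hits as doubtful in a second field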
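Rango FRET biosensor (snurportin-1 IBB flanked by N-terminal EYFP and C-terminal CFP10) at 0.1 uM, with 0.25 uM importin beta in PBS, 1mM DTT, 0.02% Tween-20, 0.1% BSA. 0.6 uM Ran, 2mM GTP and 0.2 uM RCC1 were then added for 45 min at room temperature. Inhibition read as loss of FRET rise.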
GLA inh pH 4.5: alpha-galactosidase A (human) inhibition, pH 4.5. purified enzyme, 4-MU-alpha-Gal fluorescence, pH 4.5. activity change, negative = inhibition, % at 105 µM. 230,000 tested, under 10 active. AID 1467; inconclusive = small, poorly fitted or top-dose-only inhibition, or a rising curve; inactive = flat fitted curve, though single readings scatter; no compound was filed as active;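 note: 0% = full activity with enzyme and -100% = basal without enzyme; dose as in the result columns while the protocol names 77 µM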
Rango complex inh: Rango-importin beta binding inhibition | Q14974 | 340,000 compounds, 0.031% hits | Rango CFP/YFP FRET sensor + importin beta, 45 min | Potency, µM (series often up to 92.2 µM), without a hit: at the highest dose inhibition of complex formation | AID 540263; active = rising FRET ratio curve, often small or poorly fitted; inconclusive = mostly compound fluorescence or quenching in the first reads; inactive = flat curves in all reads;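 note: potency is the fitted concentration of half-maximal effect; 0% = DMSO wells and 100% = buffer wells lacking importin beta; nearly all actives have a fitted effect of over 15% in size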
Target sequence (Q14974 whole entry, looked up): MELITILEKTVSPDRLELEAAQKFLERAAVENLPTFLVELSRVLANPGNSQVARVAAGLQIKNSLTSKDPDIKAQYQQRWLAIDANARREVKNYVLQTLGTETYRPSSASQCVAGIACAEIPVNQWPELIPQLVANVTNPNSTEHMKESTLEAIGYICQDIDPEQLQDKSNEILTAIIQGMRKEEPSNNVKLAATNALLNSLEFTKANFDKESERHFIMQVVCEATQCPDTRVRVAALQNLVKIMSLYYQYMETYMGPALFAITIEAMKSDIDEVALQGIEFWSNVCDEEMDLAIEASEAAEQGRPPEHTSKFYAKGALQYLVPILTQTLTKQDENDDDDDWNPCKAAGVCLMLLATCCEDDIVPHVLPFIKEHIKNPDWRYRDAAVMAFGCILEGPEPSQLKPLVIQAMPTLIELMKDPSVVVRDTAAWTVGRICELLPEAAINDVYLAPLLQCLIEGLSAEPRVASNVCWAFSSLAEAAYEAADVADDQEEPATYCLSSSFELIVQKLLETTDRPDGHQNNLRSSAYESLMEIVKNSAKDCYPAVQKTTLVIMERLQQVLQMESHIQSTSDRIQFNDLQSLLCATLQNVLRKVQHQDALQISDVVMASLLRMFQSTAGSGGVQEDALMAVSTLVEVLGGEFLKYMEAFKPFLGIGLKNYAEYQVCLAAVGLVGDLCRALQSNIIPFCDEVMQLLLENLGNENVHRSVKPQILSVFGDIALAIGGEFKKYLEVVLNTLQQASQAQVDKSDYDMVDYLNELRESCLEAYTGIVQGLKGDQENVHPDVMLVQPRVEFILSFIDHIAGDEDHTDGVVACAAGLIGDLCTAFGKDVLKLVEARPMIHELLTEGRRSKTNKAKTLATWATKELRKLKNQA
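Inhibition scored from the CFP 486 nm/YFP 530 nm FRET ratio 45 min after adding 0.125 microM importin beta to 50 nM Rango biosensor preincubated 5 min with compound (room temperature, PBS with DTT, Tween-20, BSA). No-importin wells as positive control.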
miR-21 FLuc: miR-21 reporter, rising signal. HeLa miR-21 FLuc reporter, luciferase, 48 h. Potency, µM (series often up to 38.3 µM), inactives show at the highest dose reporter change, positive = more light. 340,000 tested, under 10 active; active = well fitted rising curve with a large enough effect; inconclusive = small, poorly fitted or top-dose-only effect; inactive = no such curve, though single readings can be large or run the other way;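 note: % of control where 0% means no effect; miR-21 action dims this reporter so a rising signal means less miR-21 action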
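HeLa cells stably expressing CMV-driven firefly luciferase with a downstream miR-21 binding sequence, endogenously expressing miR-21, were treated with titrations (up to about 40uM final) for 48 hours at 37 degree Celsius. Luciferase luminescence was read after lysis.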
Starred values were filed as active, the others as inactive; u = inconclusive; x = not tested or not shown; & = joins results of further samples. A portion of the library (hit frequency here may not be typical).

| Rango complex inh | GLA inh pH 4.5 | miR-21 FLuc | Rango dissoc inh | Molecule |
| --- | --- | --- | --- | --- |
| -0.5% | x | 3% | -12% | Cc1nc(C)c(C(=O)N2CCCC(C(=O)c3ccc(Cl)cc3C)C2)s1 (stereo not drawn) |
| 0.4% | x | x | 14% | Cc1cc(C)c(S(=O)(=O)NCC(c2ccc3c(c2)OCO3)N2CCOCC2)c(C)c1 (stereo not drawn) |
| 1.9% | x | x | 0% | O=C(COC(=O)CCC1CCCC1)Nc1cccc(S(=O)(=O)N2CCOCC2)c1 |
| 12% | -3 | -23% | -11% | C/C(=N\N=C1\NC(=O)CS1)c1cccs1 |
| -2.3% | x | x | -2% | COc1ccc([C@H]2CC(=O)C=C(c3cc(C=O)ccc3OC)C2)cc1OC |
| 1.0% | 10 | 26% | -1% | FC(F)Oc1ccc(-c2csc(=Nc3cccnc3)n2CC2CCCO2)cc1 (stereo not drawn) |
| 0.0% | 0 | -35% | -10% | COc1cccc(Nc2ncccc2C(=O)O)c1 |
| 2.3% | 5 | -63% | 2% | CCOC(=O)N/N=C/C(Cl)=C/c1ccccc1 |
| -3.8% | x | -12% | 1% | Oc1ccc(Cl)cc1CNc1cccc2cccnc12 |
| 1.8% | x | x | 25% | CCOCC(=O)Nc1ccc(S(=O)(=O)N2CCC(c3nc4ccccc4[nH]3)CC2)cc1 |
| 0.3% | 0 | -4% | 7% | CCOc1ccccc1NC(=O)c1cccc(S(=O)(=O)N(Cc2ccccc2)c2ccccc2OC)c1 |
| -3.8% | 4 | -11% | 6% | CCOC(=O)c1cn(Cc2cccc(Cl)c2)nn1 |
| 0.2% | x | 0% | 1% | COc1ccc(C(=O)OCCOc2cccc(Cl)c2)cc1S(=O)(=O)N1CCOCC1 |
| -2.7% | -4 | -19% | 9% | CNC(=O)c1sc(-c2cccs2)nc1C |
| 0.2% | 3 | -6% | -3% | CCC(C)c1ccc(NC(=O)c2cnn3c(C(F)F)cc(C)nc23)cc1 (stereo not drawn) |
| 2.4% | -13 | -3% | 0% | O=C(CCSc1ccccn1)c1ccccc1 |
| -6.0% | 5 | -3% | 1% | O=C(O)CNc1nc(-c2ccccc2)nc2ccccc12 |
| -3.2% | -6 | 4% | -8% | COC(=O)CC(=O)N1CCN(c2ccc(Cl)c(Cl)c2)CC1 |
| -0.7% | -11 | -5% | -10% | Cc1oc(-c2ccccc2Cl)nc1Cn1cccc1C1=NC(c2ccccc2)CO1 (stereo not drawn) |
| -0.5% | x | 1% | 4% | CC(=O)Nc1ccc(NC(=O)c2sc(-c3ccccc3)nc2C)cc1 |
| 0.5% | -22 | -4% | 20% | CCCNC(=O)c1ccc(OC)cc1OC |
| 0.5% | x | x | -5% | CS(=O)(=O)c1ccc(Cl)c(NC(=O)COC(=O)CNC(=O)c2sc3ccccc3c2Cl)c1 |
| 3.7% | 6 | 0% | -10% | Cn1cc(C(=O)NCN2CCCCC2)c2ccccc21 |
| -2.5% | -17 | -10% | 11% | FC(F)(F)c1cccc(NC(=S)NCC(c2cccnc2)N2CCOCC2)c1 (stereo not drawn) |
| 6.1% | x | -17% | 7% | CCOC(=O)N1CCN(C(=O)c2cc(COc3cccc(C(C)=O)c3)on2)CC1 |
| 2.8% | -15 | -6% | -14% | O=C(CC(Cc1ccccc1)c1ccco1)NCc1ccco1 (stereo not drawn) |
| -4.1% | 3 | 0% | 19% | O=C(CC(c1ccccc1)c1ccccc1)N1CCN(c2ccccn2)CC1 |
| -2.3% | x | 21% | 1% | COc1ccc(C(O)(C2CCCCC2)C(CN2CCOCC2)c2ccccc2)cc1 (stereo not drawn) |
| 0.3% | x | x | -4% | O=C(Nc1ccc(Cl)c(S(=O)(=O)N2CCOCC2)c1)c1n[nH]c(=O)c2ccccc12 |
| -1.9% | x | x | 1% | Cn1c(=O)c2c(nc(CN3CCN(c4ccccc4F)CC3)n2CCCc2ccccc2)n(C)c1=O |

Given with two lines to a compound: two of the compounds above
Every second line gives: Rango complex inh | GLA inh pH 4.5 | miR-21 FLuc | Rango dissoc inh
O=C(CC(c1ccccc1)c1ccccc1)N1CCN(c2ccccn2)CC1
→ -4.1% | 3 | 0% | 19%
COc1ccc(C(O)(C2CCCCC2)C(CN2CCOCC2)c2ccccc2)cc1 (stereo not drawn)
→ -2.3% | x | 21% | 1%

The results go on.
| Rango complex inh | GLA inh pH 4.5 | miR-21 FLuc | Rango dissoc inh | Molecule |
| --- | --- | --- | --- | --- |
| -0.2% | 11 | -1% | -12% | CCC(=O)Nc1ccccc1C(=O)N1CCN(Cc2ccccc2)CC1 |
| -3.1% | 0 | -47% | -3% | O=C(NCCCN1CCCC1=O)c1cc2c(s1)CCCCC2 |
| 2.3% | x | x | 5% | COc1ccc(NC(=O)CSCC(=O)N(C)CCOc2ccc(Cl)cc2)cc1 |
| -2.8% | -7 | -9% | -4% | COc1ccc2nc(C)cc(SCC(=O)N/N=C/c3ccc(O)c(O)c3)c2c1 |
| 1.0% | x | -2%&-6% | 17% | CCOC(=O)c1ccccc1NC(=O)CSc1nc2ccncc2[nH]1 |
| -2.4% | -2 | -35% | 6% | O=C(CSc1nnc(-c2ccc(F)cc2)c2ccccc12)Nc1ccccc1 |
| -3.6% | 9 | 1% | 0% | CC1CC(C)(C)NCCNC(C)CC(C)(C)NCCN1 (stereo not drawn) |
| 6.5% | 1 | -8% | 23% | COC(=O)c1cc2sc(Cl)cc2n1CC(=O)Nc1ccc(OC)c(OC)c1OC |
| -2.4% | 3 | 1% | -1% | CCOC(=O)CC1C(=O)NCCN1S(=O)(=O)c1ccc(C)cc1 (stereo not drawn) |
| 1.1% | -22 | -3% | -2% | Nc1c(S(=O)(=O)c2cccc(Cl)c2)c2nc3ccccc3nc2n1CCN1CCOCC1 |
| 4.6% | 3 | 0% | 4% | CCOC(=O)c1ccc(N2C(=O)CC(C3CCCO3)C2=O)cc1 (stereo not drawn) |
| 1.2% | 2 | -5% | -5% | Cc1ccc(N(CC(=O)NCC2CCCO2)S(C)(=O)=O)cc1Cl (stereo not drawn) |
| 0.9% | x | x | 13% | Cc1nn(Cc2ccccc2)c(C)c1C(=O)N1CCN(CC(=O)Nc2ccc(F)cc2)CC1 |
| -0.3% | -7 | 0% | 0% | CCCCn1c(NC(=S)Nc2ccccc2)nc2ccccc21 |
| 0.6% | -16 | 0% | -8% | O=C(NC(=S)Nc1ccc(Cc2ccncc2)cc1)c1ccccc1Cl |
| 2.0% | 0&-2 | x | -4% | C[C@@H](CN1CCC(Cc2ccccc2)CC1)[C@@H](O)c1ccc(O)cc1 |
| 2.4% | -2 | -16% | 9% | O=C(N/N=C/c1cccc([N+](=O)[O-])c1)c1cccc2cc[nH]c12 |
| -5.4% | 5 | 0% | -11% | CS(=O)(=O)c1ccc(C(=O)N2CCN(Cc3ccccc3)CC2)cc1 |
| -1.6% | -2 | -2% | 9% | COC(=O)C1=C(N)Oc2cc(C)n(CC3CCCO3)c(=O)c2C1c1ccccc1 (stereo not drawn) |
| 1.6% | x | x | 4% | Cc1ccc(NC(=O)COc2coc(CN3CCN(Cc4ccccc4)CC3)cc2=O)cc1 |
| -0.4% | -2 | 0% | -2% | CCCOP(=O)(c1ccc(N(C)C)cc1)C(O)c1cccnc1 (stereo not drawn) |
| 1.9% | 19 | 0% | 1% | Cc1onc(-c2c(F)cccc2Cl)c1C(=O)N1CCN(c2ncc(Br)cn2)CC1 |
| -2.8% | x | -1% | 0% | Cc1ccc(CNC(=O)CCC(=O)Nc2nnc(C(C)C)s2)cc1 |
| -0.4% | x | x | -13% | O=C(Cc1ccc(Br)cc1)Nc1cccc(S(=O)(=O)N2CCOCC2)c1 |
| 0.2% | x | 2% | 6% | COc1ccc(/C=C2\Sc3ccc(C(=O)NCCN4CCCCCC4)cc3N(C)C2=O)cc1 |
| -0.1% | x | -8% | 2% | COc1cccc(-c2cc(C(=O)N3CCN(C(=O)c4ccco4)CC3)on2)c1 |
| 1.0% | 3 | 2% | -7% | COc1ccc(Cl)cc1C(=O)NNC(=O)c1nc2nc(C)cc(C)n2n1 |
| -0.5% | -8 | -1% | 22% | O=C1CN(C(=O)c2ccc(Br)o2)C(c2ccccc2)c2cc(F)ccc2N1 (stereo not drawn) |
| -2.1% | 4 | -50% | -6% | COc1ccc(NC(=O)Nc2ccc(N(C)C)cc2)cc1 |
| -0.3% | x | 15% | 24% | CCOc1ccccc1CN1CCCC(C(=O)c2ccc(OC)c(OC)c2)C1 (stereo not drawn) |

Reprinted from the listing for reference:
| Rango complex inh | GLA inh pH 4.5 | miR-21 FLuc | Rango dissoc inh | Molecule |
| --- | --- | --- | --- | --- |
| 1.0% | 3 | 2% | -7% | COc1ccc(Cl)cc1C(=O)NNC(=O)c1nc2nc(C)cc(C)n2n1 |
| -0.5% | -8 | -1% | 22% | O=C1CN(C(=O)c2ccc(Br)o2)C(c2ccccc2)c2cc(F)ccc2N1 (stereo not drawn) |
| -2.1% | 4 | -50% | -6% | COc1ccc(NC(=O)Nc2ccc(N(C)C)cc2)cc1 |
| -0.3% | x | 15% | 24% | CCOc1ccccc1CN1CCCC(C(=O)c2ccc(OC)c(OC)c2)C1 (stereo not drawn) |

The list continues:
| Rango complex inh | GLA inh pH 4.5 | miR-21 FLuc | Rango dissoc inh | Molecule |
| --- | --- | --- | --- | --- |
| u | -1 | 0% | 1% | O=C(O)C1CCC(=O)N1C1CCCC1 (stereo not drawn) |
| 3.4% | 3 | 2% | 18% | CC(C)CC(=O)N1CCN(S(=O)(=O)c2ccccc2)CC1 |
| 4.9% | -6 | -1% | 6% | O=C(CC1C(=O)NCCN1CC1CCCCC1)NCc1ccc(Cl)cc1 (stereo not drawn) |
| -1.2% | -10 | -8% | 5% | Cn1c(CCc2ccccc2)nnc1SCC(=O)N1CCCC1 |
| -0.1% | -1 | 12% | -13% | CSc1nc(N)c(C#N)c(-c2ccccc2Cl)c1C#N |
| 1.1% | 1 | -16% | 2% | Cc1occc1C(=O)NNC(=S)NCc1ccc(Cl)cc1 |
| -5.3% | 5 | -6% | 0% | Cc1nnc(NC(=O)CCC(=O)N2CCC(C)CC2)s1 |
| -1.0% | 9 | -12% | -9% | N#C/C(=C/c1ccc(OCc2ccc(C(=O)O)cc2)c(Br)c1)c1cccc(F)c1 |
| -1.5% | x | -6% | 18% | CN1CCN(C(=O)CN(C)S(=O)(=O)c2ccc(F)cc2)CC1 |
| 0.7% | x | -36% | -9% | COc1cc(SC)ccc1C(=O)OCC(=O)N1CCCC1 |
| -3.0% | -12 | -2% | -8% | Cc1ccc(NC(=O)Cc2nnc(SCC(=O)Nc3ccccc3)n2C)cc1 |
| -1.1% | -5 | 7% | -22% | COc1ccc(-c2ncncc2-c2ccc(Cl)cc2)c(O)c1 |
| -0.5% | -14 | 23% | 22% | CCC(=O)Nc1cccc(C(=O)/C=C/c2cccs2)c1 |
| 1.3% | x | x | 0% | Cc1ccc(OCCC(=O)NNC(=O)c2nn(C)c(=O)c3ccccc23)cc1 |
| u | 2 | 1% | u | COC(=O)c1ccccc1S(=O)(=O)N1Cc2cc([N+](=O)[O-])ccc2Oc2ccccc21 |
| 0.1% | 2 | 0% | 5% | COc1ccc(N(C(=O)Cn2nnc(-c3ccc(Cl)cc3)n2)C(C(=O)NCC2CCCO2)c2ccncc2)cc1 (stereo not drawn) |
| 5.5% | x | x | -28% | COC(=O)[C@@]12CCCCN1[C@H](c1ccc(-c3cccc(Cl)c3)cc1)[C@@H]1C(=O)N(C)C(=O)[C@@H]12 |
| -0.2% | -1 | u | -5% | CCOC(=O)Cc1c(C)nc2c(-c3ccc(Cl)cc3)c[nH]n2c1=O |
| x | 6 | -9% | x | Cc1ccc(N(CCC(=O)Nc2nnc(C3CC3)s2)S(=O)(=O)c2ccccc2)cc1 |
| 6.6% | 8 | 0% | 6% | NC(=O)NC(=O)CC1S/C(=N/N=C/c2ccccc2)NC1=O (stereo not drawn) |
| u | 2 | -8% | -7% | COc1ccc(OC)c(NC(=O)CSc2ncccn2)c1 |
| u | -13 | -9% | u | O=C(Nc1sc2c(c1C(=O)NCC1CCCO1)CCCC2)c1cccs1 (stereo not drawn) |

High-throughput results as filed in PubChem BioAssay.
